Screens: PubChem BioAssay, National Center for Advancing Translational Sciences (NCATS)
D2 PAM = positive allosteric modulators of human D2 dopamine receptor. P14416. DiscoveRx D2 beta-arrestin cells, luminescence, 90 min; 100% = 57 uM dopamine signal. potentiation, % (concentration not given with the values). AID 624464. actives 0.23% (n = 360,000); active = potentiation of 50% or more; inconclusive = 30% to 50%; inactive = 30% or less;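 also: compound concentration not given in the record; tested on top of an EC20 dose of dopamine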
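D2 cells co-treated with compound plus 50 nM dopamine (EC20) for 90 min at 37 deg C to detect potentiation. Beta-arrestin recruitment was read as enzyme-fragment luminescence after 1 h at ambient temperature. Full response was set by 57 uM dopamine.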
gsp ag = activates gsp, the McCune-Albright syndrome mutation; AID 624287; gsp mutant cells, cAMP HTRF, 30 min; control for the full effect not named in the record; Potency, µM (highest dose often 76.9 µM), without a hit: at the highest dose activation (cAMP increase), actives largely listed as activators; actives 0.13% (n = 340,000); active = well fitted activation curve with a large enough effect; inconclusive = small, poorly fitted or top-dose-only effect, or another doubt; inactive = no such curve, though single readings can be large or run the other way; cell line not stated here;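 also: phosphodiesterase inhibitor Ro 20-1724 added with compounds to block cAMP breakdown; potency is read from the fitted curve at half-maximal effect; nearly all actives have a fitted effect of over 60% in size; about a fifth of the inactives were tested at one dose only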
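Cells stably selected in G418 were plated at 2000/well, grown 16-24 hr, then given compounds in DMSO with the PDE inhibitor […] (300 uM solution added) for 30 min at 37C; cAMP was read by HTRF.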
gsp antag = antagonizes gsp, the McCune-Albright syndrome mutation | gsp-mutant cells, cAMP HTRF, 30 min; control for the full effect not named in the record | Potency, µM (top dose mostly 76.9 µM), for inactives: top-dose activity change, negative = inhibition, actives largely listed as inhibitors | actives 0.4% (n = 340,000) | AID 624288; active = falling curve of any shape with a large fitted effect; inconclusive = falling curve, mostly with a smaller effect; inactive = flat or rising curve; cell line not stated here;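 also: intracellular cAMP measured with PDE inhibitor Ro 20-1724 present during compound exposure; potency is read from the fitted curve at half-maximal effect; % is scaled to controls: 0 for no effect and ±100 for the full control effect; nearly all actives have a fitted effect of over 65% in size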
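HTRF cAMP measurement after 30 min RT detection following 30 min, 37C compound treatment alongside […] (added as 300 uM solution) in G418-selected cells seeded at 2000/well and grown 16–24 h.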
CtBP-E1A blk = inhibitors of CtBP/E1A interaction. AlphaScreen GST-E1A/His-CtBP binding, 1536-well; hits give low values; control for the full effect not named in the record. activity change, % (no concentration beside the values). actives 0.49% (n = 340,000); in the data active means activity change below about -65%; inconclusive means about -30% to -65%; inactive means above about -30%; also: % is scaled to controls: 0 for no effect and ±100 for the full control effect; compound concentration not given in the record
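GST-E1A and His-tagged CtBP (125 nM each as 5X stock) were preincubated with pin-transferred compound for 2 h at 37 °C in the dark, then glutathione donor and nickel acceptor beads were added for 1 h before AlphaScreen reading.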
Six1-Eya2 blk = blocks human Six1 binding to Eya2 | Q15475+O00167 | AlphaScreen GST-Six1/His-Eya2 binding, biochemical; hits give low values; control for the full effect not named in the record | activity change, % (test concentration not listed) | actives 0.56% (n = 360,000) | AID 651725; in the data active = activity change below about -65%; inconclusive = about -30% to -65%; inactive = above about -30%; also: % is scaled to controls: 0 for no effect and ±100 for the full control effect; compound concentration not given in the record
Target sequence (O00167 whole entry, looked up): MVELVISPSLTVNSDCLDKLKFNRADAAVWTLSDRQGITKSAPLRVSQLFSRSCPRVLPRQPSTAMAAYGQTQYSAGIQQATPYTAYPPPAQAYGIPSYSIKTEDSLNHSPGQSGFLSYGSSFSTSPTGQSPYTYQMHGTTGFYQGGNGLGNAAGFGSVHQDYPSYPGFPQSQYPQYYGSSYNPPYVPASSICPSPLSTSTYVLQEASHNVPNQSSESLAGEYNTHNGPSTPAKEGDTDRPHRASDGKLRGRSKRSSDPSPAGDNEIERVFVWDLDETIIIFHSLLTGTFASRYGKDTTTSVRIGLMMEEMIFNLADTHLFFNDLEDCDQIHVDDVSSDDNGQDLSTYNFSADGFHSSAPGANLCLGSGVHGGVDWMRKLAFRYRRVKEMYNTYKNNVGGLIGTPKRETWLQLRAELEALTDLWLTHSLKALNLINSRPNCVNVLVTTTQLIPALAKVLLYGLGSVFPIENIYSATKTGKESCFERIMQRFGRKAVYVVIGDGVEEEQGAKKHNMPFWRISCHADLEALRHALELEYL
Target sequence (Q15475 whole entry, looked up): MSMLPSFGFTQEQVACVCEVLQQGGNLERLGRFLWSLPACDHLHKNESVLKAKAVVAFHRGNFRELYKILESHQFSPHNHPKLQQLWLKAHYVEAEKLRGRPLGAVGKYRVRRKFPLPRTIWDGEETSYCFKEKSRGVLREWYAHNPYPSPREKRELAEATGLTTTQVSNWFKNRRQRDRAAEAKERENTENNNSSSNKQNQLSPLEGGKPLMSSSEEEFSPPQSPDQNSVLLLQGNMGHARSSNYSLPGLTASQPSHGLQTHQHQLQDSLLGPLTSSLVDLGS
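Six1/Eya2 binding was read as AlphaScreen signal after compounds were pinned into GST-Six1 plus His-tagged Eya2 (5X stock 250/500 nM) in pH 8.0 Tris/NaCl/TCEP buffer, beads added, then incubated 1 h, 37 C, dark.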
D2 ag = human D2 receptor agonism in beta-arrestin assay; DiscoveRx PathHunter D2 beta-arrestin, luminescence, 90 min; 100% = 57 uM dopamine signal; actives 0.084% (n = 360,000); AID 624465; activation, % (concentration not given with the values); in the data active = activation above about 40%; inconclusive = about 15% to 40%; inactive = below about 15%; also: compound concentration not given in the record; the text of the record calls up to 30% inactive
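DiscoveRx PathHunter D2 beta-arrestin cells (2,100/well) attached overnight, then compound-stimulated 90 min at 37 C in HBSS/10 mM HEPES/0.1% Tween-20 buffer; beta-galactosidase complementation read by luminescence after 1 h at ambient temperature. Dopamine 57 uM final (EC100) as control.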
Numbers without * were called inactive; ? = inconclusive; · = no result given; [ ] = remark or other dose.

Values run as follows: D2 PAM	gsp ag	gsp antag	CtBP-E1A blk	Six1-Eya2 blk	D2 ag
- O=c1c(-c2ccc(O)cc2)coc2cc(OC3OC(CO)C(O)C(O)C3O)cc(O)c12 (centres undefined)
    0	-12%	2%	6	4	-5.7
- Cc1ccc(CNC(=O)CCN2C(=O)[C@@H]3Cc4ccccc4CN3C2=O)cc1
    0	-32%[inhibitor]	-2%	·	11	-0.1
- O=C(OCCCN=C1NS(=O)(=O)c2ccccc21)c1ccc(F)cc1
    -17	-28%	2%	-1	4	-5.0
- OC[C@@H]1CN(Cc2cccnc2)C[C@H](n2cnc3c(N4CCN(c5ccccc5)CC4)ncnc32)O1
    -7	·	·	?	?	?
- Cc1c(C)c2ccc(OCC(=O)N3CCN(c4ccccc4)CC3)cc2oc1=O
    -13	22%	-17%	-11	-9	-0.6
- Cc1cccc(CN2C(=O)CCSc3ccc(Cl)cc32)c1
    30	10%	-9%	14	21	-1.6
- Cc1ccc(C2(C)NC(=O)N(CC(=O)Nc3ccc(-c4nc5ccc(C)cc5s4)cc3)C2=O)cc1 (centres undefined)
    -8	?	0%	-9	-2	-2.5
- CC(C)(CC(=O)O)CC(=O)O
    -7	?	6%	6	2	-1.8
- COc1ccccc1CNC(=O)Nc1nc(C(N)C(C)C)cs1 (centres undefined)
    -2	·	·	-5	-13	0.6
- O=C(Nc1ccc(Cl)cc1)c1cc(S(=O)(=O)Nc2ccccn2)ccc1Cl
    1	-10%[15.4 µM]	-14%	0	-4	3.2
- CC(NS(=O)(=O)c1cccc(C(=O)NCc2ccncc2)c1)c1ccccc1 (centres undefined)
    -3	8%	9%	7	-4	1.6
- CCCN(Cc1ccc(N(C)C)cc1)CC1CC1
    -11	4%	7%	9	0	0.4
- CC(=O)c1cccc(NC(=O)C2CCCN2S(=O)(=O)c2cccc3nsnc23)c1 (centres undefined)
    -7	-6%	2%	3	1	-3.7
- O=C(COC(=O)C1(c2ccccc2F)CCCC1)Nc1ncc(C(F)(F)F)cc1Cl
    -18	-24%	-17%	0	0	-2.4
- COc1ccccc1C=NNC(=O)C(=O)NN=Cc1ccccc1OC
    3	-4%	7%	-11	-6	0.6
- CCCN(CCC)C(=O)c1cn(CC)c2ccc(S(=O)(=O)N3CCCCC3)cc2c1=O
    -12	2%	4%	-4	4	-3.6
- COc1ccccc1NC(=O)c1ccc2nc(-c3ccccc3)c(-c3ccccc3)nc2c1
    8	25%	8%	8	4	2.6
- O=C(Nc1cc(Cl)ccc1-n1cncn1)c1ccc([N+](=O)[O-])o1
    15	-27%	0%	-11	-23	14
- COc1ccccc1OCc1nc(C#N)c(N2CCCC2)o1
    -5	10%[15.4 µM]	-10%	-15	-5	-4.9
- CN(C)CCCN(C(=O)COc1ccccc1)c1nc2ccc(Cl)cc2s1
    -7	-29%[15.4 µM]	16%	-4	-4	-3.5
- C#CCOCCOCCOCCNc1nc(N2CCN(C(=O)Cn3cc(CCCN=C(N)N)nn3)CC2)nc(N2CCN(C(=O)[C@H](CCCCN)n3cc(CC(C)O)nn3)CC2)n1 (some centres undefined)
    -3	·	13%	5	-1	0.4
- CCC(=O)Nc1ccc(C(=O)NNC(=O)c2ccc(C)cc2)cc1
    28	-6%	3%	·	-1	-2.1
- CN(C)CC1(C)Cc2ccsc2C1O (centres undefined)
    8	10%[15.4 µM]	17%	3	6	-3.4
- COc1ccc(CNC(=O)c2sc(=O)n(Cc3ccc(S(=O)(=O)N(C)C)cc3)c2C)cc1
    -3	·	·	-28	4	1.2
- CC(NC(=O)c1ccc2c(c1)C(=O)N(Cc1cccnc1)C2=O)c1ccccc1 (centres undefined)
    -3	5%	-7%	-5	0	-3.9
- CCc1c(C)n([O-])c2c([n+]1=O)CCCCC2
    0	?	3%	-1	0	-2.7
- CSCC(=O)NC1CCCc2c1cnn2-c1ccc(C)c(C)c1 (centres undefined)
    -7	-159%[inhibitor]	-4%	-11	-19	1.1
- CN(C)CCN1CCN(C2CN(C3CCCCC3)S(=O)(=O)C2)CC1 (centres undefined)
    -5	·	·	3	5	-1.7
- CCOC(=O)c1c[nH][nH]c1=O
    -6	?	1%	·	8	-4.3
- COc1ccccc1C(=O)C1CCCN(C(=O)CCC(=O)c2ccccc2)C1 (centres undefined)
    0	?	-14%	5	-1	-2.0
- N#Cc1ccc(CN2CCN(C(=O)c3cn(Cc4ccccc4)nc3-c3cccnc3)CC2)cc1
    -2	7%	-17%	0	-1	7.1
- O=C(NNC(=S)NC1CCCCC1)c1cccs1
    -25	-24%	8%	-20	9	-6.1
- CCCOC(=O)c1ccc(OCC(O)Cn2c(C)nc3ccccc32)cc1 (centres undefined)
    3	-51%[inhibitor]	-21%	2	5	8.3
- CCN(CC(=O)Nc1ccccc1C(F)(F)F)C(=O)Cc1cccs1
    7	-41%[inhibitor]	13%	·	12	-0.7
- O=C(c1ccccc1)c1ccc2nc(-c3ccc(NC(=O)c4ccccc4F)cc3)[nH]c2c1
    3	?	-10%	3	6	-0.2
- Cc1cc(N)c(NC2=CC(=O)CC(C)(C)C2)cc1C
    -1	25%	-4%	-3	-2	-1.9
- CNC[C@@H]1Oc2ccc(NC(=O)Nc3c(C)noc3C)cc2CC(=O)N([C@H](C)CO)C[C@H]1C
    -1	·	-3%	1	2	1.5
- COC(=O)C(NS(=O)(=O)c1ccc(F)cc1)c1ccccc1 (centres undefined)
    -1	8%	9%	-12	-9	-3.4
- Cc1ccc(CC2CC(=O)N(Cc3ccco3)C2=O)cc1 (centres undefined)
    -6	14%	4%	-1	-1	-4.0
- CCOC(=O)C1=C(N)N2C(=O)C(C)SC2=C(C(=O)OC)C1c1cccc(OC)c1 (centres undefined)
    -4	-45%[inhibitor]	-7%	-1	4	-4.4
- CCOC(=O)N1CCN(CCC(=O)Nc2cc([N+](=O)[O-])ccc2OC)CC1
    -11	0%	-2%	5	2	-0.8
- C/C=C(\C)CN1CCN(c2cccc(C)c2C)CC1
    -28	5%	1%	7	4	1.2
- O=c1[nH]c2ccc(Cl)cc2c(-c2ccccc2)c1SC(=S)N1CCCCC1
    -13	18%	0%	-27	-28	-0.5
- O=C(O)c1ccc(-c2nc(-c3ccc(Cl)cc3)cs2)cc1
    2	-24%	?	-3	4	-2.9
- CCCS(=O)(=O)N1CCCC(C(=O)NCCCN2CCN(c3ccccc3F)CC2)C1 (centres undefined)
    -19	-6%	4%	2	-3	14
- CC1=C(C(=O)N2CCOCC2)CC(CC(=O)NC2CCCC2)C(=O)N1CCCN1CCCC1=O (centres undefined)
    1	?	·	-4	-13	-2.8
- O=C(Nc1nnc(CCOCCOCCc2nnc(NC(=O)c3ccco3)s2)s1)c1ccco1
    -17	-34%[inhibitor]	-12%	0	-8	-2.3
- CC(=O)CCC1CC(c2ccc(Cl)cc2)=NO1 (centres undefined)
    -4	·	3%	-2	2	-2.6
- Cc1cc(=O)n2nc(N3CCCC3C(=O)Nc3cccc(F)c3)sc2n1 (centres undefined)
    -2	?	8%	23	10	-0.2
- CCOc1ccccc1CN1CCCC(C(=O)Nc2cccc(-n3cccn3)c2)C1 (centres undefined)
    -33	-26%	-2%	-12	-8	-9.0
- CCOc1ccc(C(=O)Nc2ccc(S(=O)(=O)N3CCN(C)CC3)cc2)cc1
    -7	2%[15.4 µM]	2%	-15	-3	-0.2
- COCCN(C(=O)COC(=O)C12CC3CC(CC(O)(C3)C1)C2)c1c(N)n(Cc2ccccc2)c(=O)[nH]c1=O
    -5	-24%	·	8	7	-2.5
- CC(C)Cc1csc(NC(=O)c2ccc(Cl)cc2)c1C(=O)O
    -4	-14%	-8%	2	7	2.6
- CN(C)CCCOC(=O)c1ccc(Cl)cc1
    -23	-43%[inhibitor]	2%	2	4	-2.5
- COc1ccc(C(=O)/C=C2/C(=O)Nc3ccccc32)cc1
    -2	?	-6%	3	5	1.9
- Cc1cc2ccccc2n1CCNC(=O)COc1ccc2ccccc2c1
    -3	-10%	-6%	0	-20	1.0
- Cn1c(=O)c2c(ncn2CC(=O)Nc2cc(S(=O)(=O)N3CCCCC3)ccc2Cl)n(C)c1=O
    -4	?	0%	-12	0	3.9
- COc1ccc(-n2c(C)cc(-c3csc(N)n3)c2C)cc1
    -3	1%	-15%	1	-3	-5.9
- COc1ccc(NC(=O)Nc2ccc3c(c2)CC(=O)N([C@H](C)CO)C[C@H](C)[C@H](CN(C)Cc2ccc(C(=O)O)cc2)O3)cc1
    -8	-8%	4%	0	-2	-3.7
- CCc1nc2ccccc2c(=O)n1NC(=O)c1c(O)c2ccccc2n(CC)c1=O
    1	17%[15.4 µM]	-24%	6	0	-1.8

Just gsp ag and CtBP-E1A blk, for some of the entries so far:
SMILES | gsp ag | CtBP-E1A blk
O=c1[nH]c2ccc(Cl)cc2c(-c2ccccc2)c1SC(=S)N1CCCCC1 | 18% | -27
CCCOC(=O)c1ccc(OCC(O)Cn2c(C)nc3ccccc32)cc1 (centres undefined) | -51%[inhibitor] | 2
COCCN(C(=O)COC(=O)C12CC3CC(CC(O)(C3)C1)C2)c1c(N)n(Cc2ccccc2)c(=O)[nH]c1=O | -24% | 8
Cc1ccc(CC2CC(=O)N(Cc3ccco3)C2=O)cc1 (centres undefined) | 14% | -1

Some of these compounds in order of their number in Six1-Eya2 blk, descending.
SMILES	D2 PAM	gsp ag	CtBP-E1A blk	Six1-Eya2 blk	D2 ag
CNC[C@@H]1Oc2ccc(NC(=O)Nc3c(C)noc3C)cc2CC(=O)N([C@H](C)CO)C[C@H]1C	-1	·	1	2	1.5
N#Cc1ccc(CN2CCN(C(=O)c3cn(Cc4ccccc4)nc3-c3cccnc3)CC2)cc1	-2	7%	0	-1	7.1
CC1=C(C(=O)N2CCOCC2)CC(CC(=O)NC2CCCC2)C(=O)N1CCCN1CCCC1=O (centres undefined)	1	?	-4	-13	-2.8

(more compounds)
Values run as follows: D2 PAM	gsp ag	gsp antag	CtBP-E1A blk	Six1-Eya2 blk	D2 ag
- CC1(Cc2cc(Cl)ccc2C(F)(F)F)C(=O)Nc2ccc(OC(F)(F)F)cc21 (centres undefined)
    -5	·	·	5	3	0.8
- COCCNc1nc2c(c(=O)n(Cc3ccccc3F)c(=O)n2C)n1C
    -17	-93%[inhibitor]	-8%	·	1	-3.4
- CCOC(=O)C(CCCOc1ccccc1C)C(=O)OCC
    -12	9%	2%	47	53	-4.7
- COc1ccccc1NC(=O)[C@H](COCc1ccccc1)NC(=O)OC(C)(C)C
    17	1%	1%	9	25	-3.7
- CC(=O)Nc1c2c(nn1-c1ccc(F)cc1)CSC2
    -3	-11%	-14%	·	6	-2.7
- C[C@@H]1CN([C@@H](C)CO)C(=O)c2cccc(NC(=O)Nc3ccc4c(c3)OCO4)c2O[C@H]1CN(C)S(=O)(=O)c1cn(C)cn1
    25	·	1%	-15	-3	12
- CC(=O)N1c2ccc(Cl)cc2C2C=CCC2C1c1cccc2ccccc12 (centres undefined)
    26	-28%	13%	6	-20	0.5
- CC[C@@]12C(=O)N(c3ccccc3)C(=O)N1[C@H](c1cccc(C)c1)[C@@H]1C(=O)N(Cc3ccccc3)C(=O)[C@@H]12
    -11	?	-1%	3	0	-4.0
